PTPN22 inh 2: PTPN22 phosphatase inhibitors, primary screen, biochemical, DiFMUP fluorescence, 2 µM. Tyrosine-protein phosphatase non-receptor type 22 (Homo sapiens), Q9Y2R2. recombinant LYP catalytic domain. inhibition, % at 2 µM. actives 0.21% (n = 96,000). AID 640, 2007;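 active = inhibition at 2 µM at or above a set limit, the screen mean plus 3 SD, cut at about 24% in these data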;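 note: 0% = DMSO with enzyme and 100% = enzyme fully blocked by orthovanadate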
Target sequence (Q9Y2R2 whole entry, looked up, the tested form may be a part): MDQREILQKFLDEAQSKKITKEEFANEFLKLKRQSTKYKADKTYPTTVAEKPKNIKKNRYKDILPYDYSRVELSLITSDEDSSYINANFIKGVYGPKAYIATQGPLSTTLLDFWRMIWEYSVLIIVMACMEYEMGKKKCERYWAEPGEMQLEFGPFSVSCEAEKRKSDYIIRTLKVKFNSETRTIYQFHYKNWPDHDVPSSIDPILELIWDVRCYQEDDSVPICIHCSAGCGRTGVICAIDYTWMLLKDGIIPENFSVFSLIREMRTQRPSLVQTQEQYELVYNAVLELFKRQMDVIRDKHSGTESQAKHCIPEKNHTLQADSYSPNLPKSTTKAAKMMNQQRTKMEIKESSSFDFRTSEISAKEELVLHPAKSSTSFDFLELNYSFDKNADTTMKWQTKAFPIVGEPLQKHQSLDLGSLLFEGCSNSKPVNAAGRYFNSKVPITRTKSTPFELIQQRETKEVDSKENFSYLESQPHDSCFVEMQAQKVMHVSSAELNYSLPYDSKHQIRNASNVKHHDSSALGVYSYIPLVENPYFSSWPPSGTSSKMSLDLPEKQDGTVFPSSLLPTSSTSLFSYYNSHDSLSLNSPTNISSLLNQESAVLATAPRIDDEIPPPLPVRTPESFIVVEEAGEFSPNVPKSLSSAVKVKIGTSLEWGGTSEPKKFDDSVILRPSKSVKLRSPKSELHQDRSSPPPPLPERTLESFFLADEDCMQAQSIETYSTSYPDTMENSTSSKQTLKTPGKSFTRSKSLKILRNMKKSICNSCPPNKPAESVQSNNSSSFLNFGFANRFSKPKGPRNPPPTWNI
LYP act: LYP phosphatase activators, primary screen, biochemical, DiFMUP fluorescence, 2 µM | recombinant LYP; 0 = plate median, 100 = signal doubled | activation, % at 2 µM | actives 0.11% (n = 96,000) | AID 697, 2007;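 active = activation at 2 µM above a set limit, the mean plus 5 SD, cut at about 37% in these data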
Pyk2 oligo antag: antagonists of Pyk2 self-association, primary screen, Q293 cells, FERM NanoBiT luminescence, HTS | Protein-tyrosine kinase 2-beta (Homo sapiens), Q14289 | actives 0.83% (n = 99,000) | stronger effect = lower value | z-score (the deposit names both 25 µM and 10 µM);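 active = Z-score of -3 or lower, scaled per plate to the spread of control and sample wells; inactive = z-score above -3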;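 note: negative z-score means lost luminescence so less FERM oligomerization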
hDAT+cocaine: changed hDAT dopamine uptake under cocaine IC80, either direction, primary screen, cocaine antagonist project, cell-based, LLC-PK1 hDAT, [14C]-dopamine uptake, MLSMR. Sodium-dependent dopamine transporter (Homo sapiens), Q01959. AID 449768, 2010. B-score at 10 µM. actives 1.3% (n = 110,000). LLC-PK1 hDAT cells, [14C]-dopamine uptake with cocaine IC80; actives deviate in either direction;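 active = Z score or B-score, a plate-position-corrected score, falls beyond the plate's 99.7% confidence bounds, in either direction; inactive = both scores lie inside the 99.7% bounds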;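 note: scored against the spread of the other compound wells on the same plate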
E coli WT exp: growth inhibitors of wild-type E. coli, primary screen, strain BW25113, expanded library, OD600. OD600 absorbance. actives 0.15% (n = 98,000). growth inhibition, % at 100 µM;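 active = growth inhibition above about 50% at one test dose, limit read from the data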;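 note: growth measured after 20 h incubation at 37 °C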
* marks the source's active call; other numbers are inactive results; x = no result given.

| entry | smiles | hDAT+cocaine | E coli WT exp | PTPN22 inh 2 |
| --- | --- | --- | --- | --- |
| 1 | CCCCC/C(=N\O)c1c[nH]c2ccccc12 | -0.0066 | 33 | -1 |
| 2 | O=P(C(c1ccc2c(c1)OCO2)N1CCOCC1)(N1CCOCC1)N1CCOCC1 (configuration not stated) | 0 | -1 | -3 |
| 3 | CCCCCn1c(N)c(C(=O)NCc2cccs2)c2nc3ccccc3nc21 | 1.3 | -14 | 22 |
| 4 | CCOC(=O)N(c1ccccc1)P1(=S)OCC(C)O1 (configuration not stated) | 0.19 | 4 | -2 |
| 5 | C=C(C)CSc1nnc([C@@H](N)Cc2c[nH]c3ccccc23)o1 | 0.4 | 23 | -5 |
| 6 | CN1CCN(C(=O)COc2ccc(-c3nc4ccccc4s3)cc2)CC1 | 1.8 | 10 | 1 |
| 7 | CC(C)CCC1(CN2CCCC2=O)C(=O)NC(=O)NC1=O | -0.4 | -8 | -36 |
| 8 | Cc1cccc(NC(N)=S)c1 | -0.35 | 2 | 3 |
| 9 | CN1CCN(c2nc(N(C)C)oc(=O)c2C#N)CC1 | -0.043 | 0 | 19 |
| 10 | CCCC(=O)NC(Oc1ccc(Cl)cc1Cl)C(Cl)(Cl)Cl (configuration not stated) | 0.022 | 6 | 11 |
| 11 | CCN1CCN(c2nc3ccccc3s2)CC1 | -0.1 | 12 | -10 |
| 12 | O=[N+]([O-])c1ccc(N2CCNCC2)cc1NCC1CCCO1 (configuration not stated) | -0.36 | -8 | 9 |
| 13 | CC12CCC(=O)C=C1CCC1C2CCC2(C)C(O)CCC12 (configuration not stated) | -0.38 | 1 | x |
| 14 | O=[N+]([O-])c1ccc(C2C3C(c4ccccc4)=NC4(CCCCC4)N32)cc1 (configuration not stated) | 0.061 | -4 | 5 |
| 15 | O=C(Cn1cnc2sc3c(c2c1=O)CCCC3)NCCC(=O)N1CCC2(CC1)OCCO2 | -0.5 | 8 | -4 |

| entry | Pyk2 oligo antag | LYP act |
| --- | --- | --- |
| 1 | -1.7 | 3 |
| 2 | 0.58 | 1 |
| 3 | x | -18 |
| 4 | -0.18 | 0 |
| 5 | 0.52 | 4 |
| 6 | 0.77 | -5 |
| 7 | -0.75 | 39* |
| 8 | 0.97 | 1 |
| 9 | -0.62 | -15 |
| 10 | 1.1 | -6 |
| 11 | -1 | 6 |
| 12 | -1.4 | -6 |
| 13 | x | x |
| 14 | -0.18 | -7 |
| 15 | -0.31 | 4 |

Record cards (already shown):
CCCCCn1c(N)c(C(=O)NCc2cccs2)c2nc3ccccc3nc21 is listed with hDAT+cocaine = 1.3; E coli WT exp = -14; PTPN22 inh 2 = 22; Pyk2 oligo antag = x; LYP act = -18
O=[N+]([O-])c1ccc(C2C3C(c4ccccc4)=NC4(CCCCC4)N32)cc1 (configuration not stated) is listed with hDAT+cocaine = 0.061; E coli WT exp = -4; PTPN22 inh 2 = 5; Pyk2 oligo antag = -0.18; LYP act = -7

Some of the entries so far, with tabs:
item	Molecule	hDAT+cocaine	E coli WT exp	PTPN22 inh 2	Pyk2 oligo antag	LYP act
7	CC(C)CCC1(CN2CCCC2=O)C(=O)NC(=O)NC1=O	-0.4	-8	-36	-0.75	39*
3	CCCCCn1c(N)c(C(=O)NCc2cccs2)c2nc3ccccc3nc21	1.3	-14	22	x	-18
6	CN1CCN(C(=O)COc2ccc(-c3nc4ccccc4s3)cc2)CC1	1.8	10	1	0.77	-5
14	O=[N+]([O-])c1ccc(C2C3C(c4ccccc4)=NC4(CCCCC4)N32)cc1 (configuration not stated)	0.061	-4	5	-0.18	-7
5	C=C(C)CSc1nnc([C@@H](N)Cc2c[nH]c3ccccc23)o1	0.4	23	-5	0.52	4

Bioassay records (PubChem BioAssay)

These rows are one share of the data; count on the stated rates, not on these rows.
